# CtBP-E1A inh: inhibitors of CtBP/E1A interaction. AlphaScreen GST-E1A/His-CtBP binding, 1536-well; stronger effect = lower value; control for the full effect not named in the record. activity change, % (concentration not given with the values). 0.49% of 340,000 active; in the data active means activity change below about -65%; inconclusive means about -30% to -65%; inactive means above about -30%; further: on the % scale 0 is the no-effect control and ±100 the full control effect
#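 GST-E1A and His-tagged CtBP (125 nM each as 5X stock) were preincubated with pin-transferred compound for 2 h at 37 °C in the dark, then glutathione donor and nickel acceptor beads were added for 1 h before AlphaScreen reading.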
# gsp antagonist: antagonizes gsp, the McCune-Albright syndrome mutation. gsp-mutant cells, cAMP HTRF, 30 min; control for the full effect not named in the record. Potency, µM (highest dose often 76.9 µM), for inactives: top-dose activity change, negative = inhibition, hits mostly inhibitors. 0.4% of 340,000 active; active = falling curve of any shape with a large fitted effect; inconclusive = falling curve, mostly with a smaller effect; inactive = flat or rising curve; cell line not stated here;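 further: intracellular cAMP measured with PDE inhibitor Ro 20-1724 present during compound exposure; potency means the concentration at half of the fitted maximal effect; on the % scale 0 is the no-effect control and ±100 the full control effect; nearly all actives have a fitted effect of over 65% in size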
#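 HTRF cAMP read-out (cAMP-d2 plus anti-cAMP antibody-K in lysis buffer, 30 min RT). Before lysis, cells are exposed to compounds with […] for 30 min at 37C in DPBS containing Ca/Mg, BSA and Tween 20.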
# Six1-Eya2 blk: Six1/Eya2 interaction inhibition. Q15475+O00167. AlphaScreen GST-Six1/His-Eya2 binding, biochemical; stronger effect = lower value; control for the full effect not named in the record. activity change, % (test concentration not listed). 0.56% of 360,000 active; in the data active = activity change below about -65%; inconclusive = about -30% to -65%; inactive = above about -30%; further: on the % scale 0 is the no-effect control and ±100 the full control effect; compound concentration not given in the record
# Target sequence (O00167 whole entry, looked up): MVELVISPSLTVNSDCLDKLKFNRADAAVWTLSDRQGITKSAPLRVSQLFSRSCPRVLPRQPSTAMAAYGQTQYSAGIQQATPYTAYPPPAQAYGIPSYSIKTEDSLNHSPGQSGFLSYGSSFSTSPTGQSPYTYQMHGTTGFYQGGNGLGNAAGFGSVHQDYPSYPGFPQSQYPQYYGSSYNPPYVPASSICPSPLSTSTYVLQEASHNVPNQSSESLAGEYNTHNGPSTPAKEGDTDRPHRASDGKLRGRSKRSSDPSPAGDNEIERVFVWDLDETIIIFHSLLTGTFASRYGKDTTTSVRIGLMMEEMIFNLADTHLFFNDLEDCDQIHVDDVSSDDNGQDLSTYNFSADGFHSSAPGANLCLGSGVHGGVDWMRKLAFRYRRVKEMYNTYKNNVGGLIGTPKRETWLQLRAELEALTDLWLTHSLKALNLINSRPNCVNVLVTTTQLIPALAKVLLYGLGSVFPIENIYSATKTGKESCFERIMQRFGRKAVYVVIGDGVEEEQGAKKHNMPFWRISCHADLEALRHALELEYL
# Target sequence (Q15475 whole entry, looked up): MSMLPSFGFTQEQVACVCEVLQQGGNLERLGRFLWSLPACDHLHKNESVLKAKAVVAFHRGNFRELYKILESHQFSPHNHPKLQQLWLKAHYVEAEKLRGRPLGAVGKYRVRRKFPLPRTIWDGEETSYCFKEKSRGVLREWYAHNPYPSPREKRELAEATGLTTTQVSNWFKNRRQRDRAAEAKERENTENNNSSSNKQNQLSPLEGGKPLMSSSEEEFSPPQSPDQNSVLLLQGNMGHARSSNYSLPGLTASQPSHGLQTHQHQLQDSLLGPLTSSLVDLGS
#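 Homogeneous AlphaScreen proximity assay pairing GST-Six1 with His-tagged Eya2 (added as 5X mix: 250 nM and 500 nM) in 50 mM Tris pH 8.0, 300 mM NaCl, 1 mM TCEP. Glutathione donor and nickel acceptor beads; 1 h, 37 °C, dark.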
# D2 PAM: human D2 receptor positive allosteric modulation; potentiation, % (test concentration not listed); 0.23% of 360,000 active; DiscoveRx D2 beta-arrestin cells, luminescence, 90 min; 100% = 57 uM dopamine signal; P14416; active = potentiation of 50% or more; inconclusive = 30% to 50%; inactive = 30% or less;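 further: compound concentration not given in the record; tested on top of an EC20 dose of dopamine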
#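 PathHunter D2 cells, attached overnight at 37 deg C, received compound in DMSO plus dopamine at EC20 (50 nM final) for 90 min at 37 deg C. Beta-arrestin recruitment was read as luminescence after 1 h with detection reagent at ambient temperature.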
# D2 ag: agonists of human D2 dopamine receptor (beta-arrestin). P14416. DiscoveRx PathHunter D2 beta-arrestin, luminescence, 90 min; 100% = 57 uM dopamine signal. activation, % (no concentration beside the values). 0.084% of 360,000 active; in the data active = activation above about 40%; inconclusive = about 15% to 40%; inactive = below about 15%; further: compound concentration not given in the record; the text of the record calls up to 30% inactive
#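 Agonist mode: compounds alone added to overnight-plated D2 PathHunter cells for 90 min at 37 C, with 57 uM final dopamine (EC100) defining full response. Beta-arrestin recruitment detected by chemiluminescent reagent, read after 1 h at ambient temperature.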
# gsp agonist: agonists of gsp mutant (McCune-Albright syndrome). Potency, µM (doses to about 76.9 µM), for inactives: at the top dose activation (cAMP increase), hits mostly activators. gsp mutant cells, cAMP HTRF, 30 min; control for the full effect not named in the record. 0.13% of 340,000 active; active = well fitted activation curve with a large enough effect; inconclusive = small, poorly fitted or top-dose-only effect, or another doubt; inactive = no such curve, though single readings can be large or run the other way; cell line not stated here;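 further: phosphodiesterase inhibitor Ro 20-1724 added with compounds to block cAMP breakdown; potency means the concentration at half of the fitted maximal effect; nearly all actives have a fitted effect of over 60% in size; about a fifth of the inactives were tested at one dose only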
#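 Cells stably selected in G418 were plated at 2000/well, grown 16-24 hr, then given compounds in DMSO with the PDE inhibitor […] (300 uM solution added) for 30 min at 37C; cAMP was read by HTRF.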
# * = called active by the depositor; u = inconclusive; x = not tested or not shown; [ ] = dose if it differs, or a comment.
CtBP-E1A inh	gsp antagonist	Six1-Eya2 blk	D2 PAM	D2 ag	gsp agonist	Molecule
3	9%	2	8	-1.0	-33%[inhibitor]	CCN(C(=O)CSc1nnc(-c2ccccc2Cl)n1C1CCCC1)C1CCS(=O)(=O)C1 (stereo not drawn)
3	x	6	7	-2.5	-155%[inhibitor]	C[C@H]1CN([C@@H](C)CO)C(=O)CCCn2nncc2CO[C@H]1CN(C)S(=O)(=O)c1ccc(-n2cccn2)cc1
-8	-24%	7	-14	-0.3	-16%	Cn1c(=O)n(C)c2cc(CNc3ccc(N4CCOCC4)c(C(=O)O)c3)ccc21
-6	8%	3	-6	-3.3	x	O=C(NC(C(=O)O)c1ccccc1)c1ccccc1 (stereo not drawn)
0	-1%	5	-25	-0.6	-25%	O=C(CSCC(=O)NC1CCCC1)Nc1ccccc1
7	-8%	1	-6	-1.9	x	C=CCOC(=O)C(=O)/C=C/c1ccc2c(c1)Cc1ccccc1-2
-17	1%	-6	7	-2.0	-9%	O=C(NC(=S)N1CCCc2ccccc21)c1ccc(Br)cc1
-2	u	-13	-5	-5.0	-3%	CC(=O)c1ccc(NC(=O)C(C)n2nc(-c3ccccc3)c3cc(Cl)ccc32)cc1 (stereo not drawn)
-11	2%	-16	-35	-4.7	6%	Cc1ccc(-c2nnc(N3CCCCC3)c3ccccc23)cc1S(=O)(=O)N1CCN(C)CC1
1	-1%	5	-4	1.5	-26%	C=CCS(=O)(=O)N1CCC(CCOc2ccccc2)(C(=O)OCC)CC1
-7	0%	-17	-4	-2.4	6%[15.4 µM]	COc1ccc(C2=NN(C(=O)CCC(=O)O)C(c3cccs3)C2)cc1OC (stereo not drawn)
11	4%	-1	-3	-2.2	u	CCN(CC)CCOC(=O)C1(c2ccccc2)CCOCC1
-5	-2%	0	-9	-0.5	9%	Cn1ncc(Br)c1C(=O)NC12CC3CC(CC(C3)C1)C2
-10	-18%	-1	-11	-5.6	u	COc1cc(NC(=O)C2=C(N3CCOCC3)/C(=C/c3ccc(Cl)cc3)CC2)cc(OC)c1OC
-8	u	-7	-74	-1.6	x	COc1ccc(-c2nc(C(=O)NCCCN3CCOCC3)cc3c2[nH]c2ccccc23)cc1OC
2	-7%	0	3	1.3	9%	CCCC(=O)Nc1nc2ccc(NC(=O)c3cccnc3)cc2s1
-22	3%	-8	-10	-1.9	-23%	C=CCn1c(SCC(=O)Nc2ccccc2OC)nnc1-c1ccccn1
7	-7%	-3	2	-1.5	-35%[inhibitor]	Cc1ccc(S(=O)(=O)N(CC(=O)Nc2cccc(N(C)S(C)(=O)=O)c2)c2ccc(Cl)c(Cl)c2)cc1
-6	5%	-3	8	-0.2	-31%[inhibitor]	COc1ccc(NC(=O)c2cc(NC(=O)C3CCCCC3C(=O)O)ccc2N2CCOCC2)cc1 (stereo not drawn)
x	7%	-2	-66	1.3	24%	Fc1cccc(CN2CCC(Cc3ccccc3)CC2)c1

# One compound at a time, as listed above. Order of screens: CtBP-E1A inh, gsp antagonist, Six1-Eya2 blk, D2 PAM, D2 ag, gsp agonist
# O=C(CSCC(=O)NC1CCCC1)Nc1ccccc1 reads 0, -1%, 5, -25, -0.6, -25%
# C=CCOC(=O)C(=O)/C=C/c1ccc2c(c1)Cc1ccccc1-2 reads 7, -8%, 1, -6, -1.9, x

# Given tab-delimited: seven of the compounds above
canonical_smiles	CtBP-E1A inh	gsp antagonist	Six1-Eya2 blk	D2 PAM	D2 ag	gsp agonist
CCN(C(=O)CSc1nnc(-c2ccccc2Cl)n1C1CCCC1)C1CCS(=O)(=O)C1 (stereo not drawn)	3	9%	2	8	-1.0	-33%[inhibitor]
C[C@H]1CN([C@@H](C)CO)C(=O)CCCn2nncc2CO[C@H]1CN(C)S(=O)(=O)c1ccc(-n2cccn2)cc1	3	x	6	7	-2.5	-155%[inhibitor]
Cn1c(=O)n(C)c2cc(CNc3ccc(N4CCOCC4)c(C(=O)O)c3)ccc21	-8	-24%	7	-14	-0.3	-16%
O=C(NC(C(=O)O)c1ccccc1)c1ccccc1 (stereo not drawn)	-6	8%	3	-6	-3.3	x
O=C(CSCC(=O)NC1CCCC1)Nc1ccccc1	0	-1%	5	-25	-0.6	-25%
C=CCOC(=O)C(=O)/C=C/c1ccc2c(c1)Cc1ccccc1-2	7	-8%	1	-6	-1.9	x
O=C(NC(=S)N1CCCc2ccccc21)c1ccc(Br)cc1	-17	1%	-6	7	-2.0	-9%

# New compounds follow:
CtBP-E1A inh	gsp antagonist	Six1-Eya2 blk	D2 PAM	D2 ag	gsp agonist	Molecule
-17	4%	-8	-18	-4.1	9%	c1csc(CSc2nnc3sc4ccccc4n23)c1
2	-1%	1	-5	-5.0	-56%[inhibitor]	NC(=O)c1cccc2c1C(=O)N(C1CCCCC1)C2
12	-5%	4	5	-1.4	-49%[inhibitor]	CCCS(=O)(=O)N1CCCC(c2nc(-c3ccc(OC)cc3)no2)C1 (stereo not drawn)
-5	-27%	-11	-8	-4.1	-20%	CCn1c(C)c(C(C)=O)c(N2CCN(c3cccc(Cl)c3)CC2)nc1=S
8	6%	7	-1	-2.8	-8%[15.4 µM]	NS(=O)(=O)c1ccc(CCNC(=O)c2ccc(=O)[nH]c2)cc1
6	0%	1	17	0.2	-8%	O=C(Nc1ccon1)c1ccccc1Cl
-1	-3%	0	-14	-2.0	0%	Cc1cccc(-n2c(O)c(C=NCCCN3CCOCC3)c3ccccc3c2=O)c1
-16	4%	-1	-1	0.6	-25%	Cc1nc2ccc(NC(=O)[C@@H](NC(=O)c3c(F)cccc3F)C(C)C)cc2s1
0	-15%	6	-7	0.8	13%	Cc1cccc(OCCC(=O)Nc2ccc(C)c(S(=O)(=O)N3CCCCC3)c2)c1
8	-11%	4	0	-1.5	26%[15.4 µM]	O=C(O/N=C/c1ccc2c(c1)OCO2)c1ccc([N+](=O)[O-])cc1
-16	5%	7	-9	-4.4	0%	CC(=O)C1=C(O)C(=O)N(c2ccc(O)cc2)C1c1ccc([N+](=O)[O-])cc1 (stereo not drawn)
46	-6%	6	-13	-2.6	1%	Cc1cc(C)n2nc(SCC(=O)N/N=C/c3cccc(Br)c3)nc2n1
10	-1%	8	15	-2.6	10%	O=S(=O)(c1ccccc1C(F)(F)F)N1CCOCC1
-2	1%	3	-2	-4.4	-25%	CCOc1ccc(S(=O)(=O)NCc2ccc3c(c2)OCO3)cc1NC(C)=O
-15	3%	-5	3	1.4	25%	O=C(CCc1ccccc1)NC(=S)NCc1ccco1
3	-1%	9	3	-2.0	0%[15.4 µM]	CCOC(=O)Cc1csc(NC(=O)Nc2ccc(F)cc2)n1
0	-4%	-5	-21	-2.0	u	Cc1ccc(C)c(/C=N/NC(=S)NCCc2ccccc2)c1
-1	-4%	-3	-33	-3.0	u	O=C(CN1CCN(c2ccccc2O)CC1)NC(c1ccccc1)c1ccccc1
8	2%	4	-2	-3.7	-99%[inhibitor]	C[C@H](NS(=O)(=O)c1c(Cl)cccc1Cl)C(=O)NNC(=O)COc1ccccc1F
0	10%	-8	-4	1.3	2%	O=C(/C=C/c1ccco1)NCc1ccco1
1	2%	5	-7	-2.8	-4%[15.4 µM]	Cc1cc(N2CCN(C)CC2)nc2ccc(NC(=S)N3CCN(c4ccc(Cl)cc4)CC3)cc12
10	-1%	-11	-12	-1.8	-1%[15.4 µM]	O=C(CSc1ccc(-c2ccc(F)cc2)nn1)Nc1ccc2c(c1)OCCO2
x	7%	3	2	-4.2	25%	COc1ccc(NC(=O)Cc2ccsc2)cc1S(=O)(=O)N1CCOCC1
9	3%	10	-5	-5.3	20%	c1ccc(CCNc2nc3ccccc3s2)cc1
-3	4%	-3	-6	-3.1	2%	Cc1ccc(S(=O)(=O)N2CCOCC2)cc1C(=O)Nc1ccccc1F
-4	7%	9	-4	-3.4	-48%[inhibitor]	COc1ccc(C2CC(=O)NC(=O)C2)cc1
-1	6%	0	24	1.3	-7%	O=[N+]([O-])c1ccc(N/N=C/c2cn(Cc3ccc(F)cc3)c3ccccc23)nc1
-13	u	-1	-2	-3.9	u	CN(C)S(=O)(=O)c1ccc(C(=O)Nc2nc(-c3cc4ccccc4o3)cs2)cc1
1	-5%	-2	9	-1.8	-15%	COc1ccc(OC)c(C2C(C(C)=O)=C(O)C(=O)N2c2ccc(O)cc2)c1 (stereo not drawn)
x	-4%	10	-4	-1.1	-55%[inhibitor]	O=C(Cc1ccccc1)NCC(=O)N/N=C/c1ccc(Cl)cc1
x	2%	1	7	-1.3	-25%	COc1ccc(CCNC(=O)CSc2nc3[nH]ncc3c(=O)n2-c2ccccc2OC)cc1OC
3	1%	-3	9	0.2	u	Cn1c(=O)oc2cc(S(=O)(=O)NCCN3CCCCCC3)ccc21
-3	x	-8	-1	-3.8	x	Cc1cc(C)c2c(CN3CCCCCCC3)cc(=O)oc2c1
3	15%	-2	-3	2.7	22%	CC(NC(=O)c1ccccc1OC(F)F)c1ccc(-n2ccnc2)cc1 (stereo not drawn)
9	1%	4	-9	-0.2	u	CC(N=c1ccccn1C(=O)Nc1ccc(Cl)cc1)c1ccco1 (stereo not drawn)
-5	-19%	-11	4	2.7	-2%[15.4 µM]	O=[N+]([O-])c1cccc(/C([O-])=C(/C(=S)Nc2ccccc2F)[n+]2ccccc2)c1
11	7%	3	0	-1.3	x	CCN1C(=O)[C@H]2[C@@H](c3ccc(OC)cc3)N3C(=O)CN(CCOC)C(=O)[C@@]3(Cc3ccccc3)[C@H]2C1=O
x	18%	4	-25	-2.5	-23%	CC(C)CCN1CCN(Cc2ccc(C(F)(F)F)cc2)CC1CCO (stereo not drawn)

# Compound activity: PubChem BioAssay, National Center for Advancing Translational Sciences (NCATS)
